High-throughput results (PubChem)
PrP 5UTR inh – inhibition of PrP 5' UTR reporter expression; AID 488862; 340,000 tested, 0.35% active; inhibition, % (test concentration not listed); cell-based PrP 5' UTR mRNA reporter, plate reader;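 active = every replicate at 50% or more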;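 note: 0 = median of the neutral control wells; tested in H4 reporter cells; numbers are from one replicate; inactives centre near -14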
RN4220 kill – kills Staphylococcus aureus RN4220 | inhibition, % (concentration not given with the values) | S. aureus RN4220 growth, OD600, 16 h | AID 1259311 | 330,000 tested, 0.33% active;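 active = z-score of -3 or lower and OD600 up to 0.18 on both plates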;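 note: plate controls were untreated cells for no effect and reference antibiotic for full effect; stock transfer was 100 nL into about 80 µL; one replicate is shown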
Mtb hypoxia inh – Mtb hypoxia fluorescent reporter inhibition. M. tuberculosis hypoxia-regulated fluorescent reporter, fluorescence. fluorescence inhibition, % (no concentration beside the values). 300,000 tested, 0.1% active. AID 1159583;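 active = 35 to 45% if threefold the growth effect, above 45% if 1.5-fold the growth effect; inactive = the rest, general growth blockers included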;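 note: wells of about 50 µL received 100 nL stock; 0% = vehicle wells and 100% = reference inhibitor wells; whole bacteria with a GFP reporter of the hypoxia response; strong numbers were not always called active; many hits fall short of the cut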
Sa ugtP lethal – kills S. aureus RN4220 lacking UgtP. 330,000 tested, 0.54% active. S. aureus RN4220 ugtP deletion, OD600 growth, 16 h; some inactives read as strong as hits. growth inhibition, % (test concentration not listed);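 active = z-score under -3 and OD600 up to 0.15 on both plates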;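 note: plate controls were untreated wells for no effect and antibiotic for full effect; wells of about 80 µL received 100 nL stock; the first replicate is given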
Bead autofluor – flagged as autofluorescent in microsphere protease counterscreen. compound autofluorescence counterscreen, microsphere flow cytometry; stronger effect = higher value. fluorescence intensity (test concentration not listed). 360,000 tested, 3.1% active;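 active = at least 3 SD above the mean of all compounds, about 16000 in these data; inconclusive = too few beads counted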;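 note: 100 nL of 1 mM stock went into each well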
BJeLR lethal – kills HRASV12-expressing BJeLR cells; inhibition, % (concentration not given with the values); 300,000 tested, 0.17% active; AID 1554; BJeLR (HRASV12) viability, CellTiter-Glo ATP luminescence, 48 h; reference of the scale not given here;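 active = replicate mean above 50%; inconclusive = above 50% but judged a plate artefact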;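 note: 50 nL library stock added to about 25 µL; numbers are from one replicate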
Mtb hypoxia inh growth – also measured in Mtb hypoxia inh; calls as there; growth inhibition, %; measured here: M. tuberculosis growth (absorbance);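 0% = vehicle and 100% = reference antibiotic; read after six days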
Active calls of the source: *; u = inconclusive; x = no result given; & = joins results of further samples.

Fields: PrP 5UTR inh, RN4220 kill, Mtb hypoxia inh, Mtb hypoxia inh growth, Sa ugtP lethal, Bead autofluor, BJeLR lethal
- COc1ccc([N+](=O)[O-])cc1N(CC(=O)Nc1ccccc1C(=O)N1CCCC1)S(C)(=O)=O
  -19.5, -1.9, -9.2, -1.4, -0.3, 5270, -8.8
- O=C(C1CCN(S(=O)(=O)N2CCC3(CC2)OCCO3)CC1)N1CCc2ccccc2C1
  -16.3, 7.2, 6.1, 5.2, 6.0, 10714, 3.6
- CCCS(=O)(=O)Nc1cccc(-c2cn3c(n2)SCC3)c1
  -10.7, 0.8, 0.7, -2.7, -8.2, 5637, -6.2
- Cc1ccc(S(=O)(=O)N2CCN(C(=O)CCC(=O)NCc3ccc(F)cc3)CC2)cc1
  -13.7, -4.3, 1.2, -2.6, -2.1, 6561, 2.8
- Cc1cc(C)n(Cc2n[nH]c(=S)n2Cc2ccccc2)n1
  -26.7, 12.1, 4.9, 13.6, 3.1, 3267, -15.2
- COC(=O)c1cc(=O)nc2sccn12
  3.7, 11.1, -6.4, -3.8, 6.8, 3460, 3.5
- O=C(O)c1ccc(-n2c(O)c(/C=C3\C=Nc4ccccc43)c(=O)[nH]c2=O)cc1
  -13.9, x, x, x, x, 3121, 2.6
- Cc1cccc(C)c1NC(=S)N(Cc1ccccc1)Cc1cccnc1
  -9.7, 4.3, 6.3, 0.7, 19.9, 3152, 6.8
- CCN(CC)S(=O)(=O)c1ccc(C)c(C)c1
  -6.0, 3.2, -4.0, -6.9, 2.9, x, -2.9
- Cc1cc2ncn(-c3ncccc3[N+](=O)[O-])c2cc1C
  -19.0, 3.5, 1.5, -0.9, 2.4, 5671, 0.4
- Nc1nnnn1N=Cc1ccccc1OCc1ccc(Cl)cc1
  x, 1.9, 0.7, -6.1, -4.8, x, x
- COc1cccc(C2=NOC(C(=O)NCc3ccco3)C2)c1 (stereo unspecified)
  x, 2.5, -5.1, 1.0, 5.0, 10747, -3.1
- O=C(c1ccccc1)c1cc([N+](=O)[O-])ccc1N1CCCC1
  -5.3, -5.6, 0.2, -1.3, 48.5, 2472, 8.6
- COc1ccccc1Nc1nc(NCC(C)C)nc(N)c1[N+](=O)[O-]
  10.8, 2.6, 4.8, 13.4, -11.6, u, -2.4
- CCOC(=O)c1[nH]c2ccc(OC)cc2c1NC(=O)N1CCOCC1
  -16.6, 0.5, x, x, 6.4, 3707, -4.9
- c1ccc(-n2nnnc2SCCCSc2nc3ccccc3s2)cc1
  -33.7, 5.9, 10.2, 1.3, 13.1, 9007, 5.8
- Cc1cccc(OC(C)C(=O)Nc2nc(-c3ccncc3)cs2)c1 (stereo unspecified)
  -3.3, -0.1, -5.7, 0.0, -0.1, 5413, x
- O=C1C(=O)N(Cc2ccccc2)C(=O)N1CCN1C(=O)c2ccccc2C1=O
  -24.1, 5.3, 9.5, 5.9, -2.1, 4043, -2.6
- O=C(NC(=O)c1ccccc1)Nc1cccc(S(=O)(=O)N2CCCCC2)c1
  -13.9, 1.3, 6.1, -3.0, 3.9, x, 5.8
- CCCSc1nc2c(cnn2-c2ccc(C)c(C)c2)c(=O)[nH]1
  3.3, 3.8, 1.9, -4.7, 3.7, 5993, 7.2
- COc1ccc(/C=N/NC(=S)Nc2ccccc2)cc1
  -25.9, x, x, x, x, 3309, -6.1
- O=C(NCc1ccccc1)C1CCC(=O)N(CC2CCCCC2)C1 (stereo unspecified)
  -0.3, 3.7, 9.7, 2.4, 3.3, 5936, 5.3
- CCN(CC)c1ccc(N=Cc2c(C)[nH]c3ccccc23)cc1
  -11.1, 1.4, x, x, -12.6, 1466, 0.3
- CC1(C)Cc2c(C#N)c(SCCOc3ccccc3)nc(N3CCOCC3)c2CO1
  3.1, -0.6, 6.7, 13.9, 4.0, 3900, -7.5
- COc1ccc(S(=O)(=O)N2CCOCC2)cc1NC(=O)Cc1c(Cl)cccc1Cl
  22.0, 21.3, 6.4, 5.3, 1.0, 2445, 2.5
- CC(=O)c1cnc2nc(SCc3cccc(C)c3)nn2c1C
  -36.7, 3.5, 1.6, -1.0, 7.7, 4492, 5.6
- CC(C)CC(CC#N)N1CCN(CCc2ccccc2)CCC1=O (stereo unspecified)
  x, 3.7, 3.5, 5.8, 1.5, x, x
- COc1cc(CC(NC(C)=O)C(=O)NC2CCN(C(=O)Nc3ccccc3C)CC2)cc(OC)c1 (stereo unspecified)
  -0.7, x, x, x, x, 3622, 2.5
- CCOC(=S)SCC(=O)Nc1nc(C)c(C)s1
  -21.8, 2.4, 1.1, -4.5, 5.9, 3410, 6.4
- COc1ccc(OC)c(NC(=O)CCCC(=O)NC2CCCCC2)c1
  -56.0, 1.2, -6.2, -4.5, 1.9, x, -0.9
- Cc1cccc(C)c1NC(=O)COc1cccc(/C=N/NC(=O)C(=O)NCc2ccccc2)c1
  -11.2, x, x, x, x, 2777, 2.5
- Cc1nn(Cc2c(F)c(F)c(F)c(F)c2F)c(C)c1NC(=O)c1c(-c2ccccc2)nn(-c2ccccc2)c1C
  -4.4, 2.2, 1.9, 1.4, 7.3, 8134, -0.1
- Cc1ccc2nc(NN=Cc3ccccc3C#N)nc(-c3ccccc3)c2c1
  x, 6.3, 14.3, 10.6, 11.2, x, x
- Cc1ccc(O)c(NC(=O)c2ccc3c(c2)C(=O)N(Cc2ccco2)C3=O)c1
  2.0, 6.1, 9.6, 10.7, 9.1, 4742, 2.5
- O=[N+]([O-])c1cc(S(=O)(=O)N2CCCC2)ccc1N/N=C/c1ccccn1
  3.2, x, x, x, x, 2378, 7.3
- CCOC(=O)N1CCN(CC(O)COc2ccccc2C(C)C)CC1 (stereo unspecified)
  -12.0, 1.6, x, x, 2.8, 2115, x
- CCCC12CN3CC(C)(CN(C1)C31C(=O)Nc3ccc(C)cc31)C2=O (stereo unspecified)
  -8.2, 1.2, 6.9, 1.8, 2.3, 11129, 1.4
- COc1ccccc1C(=O)NCC(=O)Nc1ccccc1
  -22.7, 2.8, 5.1, 11.6, -4.7, 3193, 1.1
- CCC(=O)N(Cc1cc2ccc(C)cc2[nH]c1=O)c1ccccc1OC
  -27.2, 4.5, 4.1, -3.5, 0.5, 4086, -1.6
- CCOc1ccccc1CNC(=O)CCCC(=O)n1nc(C)c2ccccc21
  -5.8, -8.4, -4.4, 0.6, -5.9, 4309, 0.3
- CCN(CC)c1ccc(C(=O)OCC(=O)Nc2ccc3[nH]c(=O)[nH]c3c2)cc1
  -16.3, -1.2, -1.5, 7.3, -12.3, 2540, -5.5
- COc1cccc(C(=O)CC(=O)C(=O)Nc2cc(OC)ccc2OC)c1
  5.3, 3.4, 8.9, 0.4, 4.4, 3300, 6.6
- C=C(C)CNC(=S)NN=C(C)c1ccc(Cl)s1
  x, 6.6, 18.0, 6.1, 1.6, x, x
- CN(c1ccc(C(=O)Nc2ccccc2C(=O)N2CCCC2)cc1)S(C)(=O)=O
  -17.4, -1.7, x, x, -4.0, 1931, -2.2
- CCOc1ccc(C(=O)CN2CCN(S(=O)(=O)c3ccc(F)cc3)CC2)cc1
  -6.8, -1.5, x, x, -6.7, 2789, 6.0
- CCCCn1c(NCc2ccccc2O)nc2ccccc21
  -5.1, -12.0, 1.8, 11.3, -11.6, 5876, 2.5
- COc1ccc(CCNC2=NCCS2)cc1
  -4.6, 2.4, x, x, 3.1, 4321, -6.0
- CC(C)(C)NC(=O)CSc1nc2ccccc2c(=O)[nH]1
  -11.0, 1.4, -2.6, 3.1, 6.5, 4734, -1.3
- COc1ccccc1-c1sc2cc3c(cc2c1-c1ccc(OCCN2CCCCC2)cc1)OCO3
  -23.2, 0.5, 15.6, 10.5, 12.2, 3072, x
- COC(=O)CCC(=O)OC1(C)C(=O)C=C2C=C(C3CC3)N(C(CO)CO)C=C2C1=O (stereo unspecified)
  -12.9, 1.5, 5.7, 1.8, -2.9, 2824, -5.3

Record cards, from the list above.
`CN(c1ccc(C(=O)Nc2ccccc2C(=O)N2CCCC2)cc1)S(C)(=O)=O` in the list: PrP 5UTR inh: -17.4; RN4220 kill: -1.7; Mtb hypoxia inh: x; Mtb hypoxia inh growth: x; Sa ugtP lethal: -4.0; Bead autofluor: 1931; BJeLR lethal: -2.2
`COc1ccc(CCNC2=NCCS2)cc1` in the list: PrP 5UTR inh: -4.6; RN4220 kill: 2.4; Mtb hypoxia inh: x; Mtb hypoxia inh growth: x; Sa ugtP lethal: 3.1; Bead autofluor: 4321; BJeLR lethal: -6.0

(next part)
Fields: PrP 5UTR inh, RN4220 kill, Mtb hypoxia inh, Mtb hypoxia inh growth, Sa ugtP lethal, Bead autofluor, BJeLR lethal
- CCOC(=O)c1oc2ccccc2c1NC(=O)CN1CCOCC1
  4.6, 8.0, 2.2, 2.2, 8.8, 4655, -0.2
- O=C(CSc1nncc2ccccc12)Nc1ccc(F)cc1
  -16.3, 5.7, 1.1, -2.8, 4.8, 5845, -15.9
- CC(C)c1ccc(S(=O)(=O)N2CCN(C(=O)c3ccco3)CC2)cc1
  -13.6, 8.0, 14.4, 14.0, 3.1, 3749, -0.7
- O=C(Nc1ccccc1)C1=CC(c2ccc(C(F)(F)F)cc2)CC(OCc2ccc(CO)cc2)O1 (stereo unspecified)
  x, -1.5&18.9, 20.6&5.8, 7.2&3.6, 9.1&-3.8, x, x
- COc1ccc(NC(=O)N2CCN(S(=O)(=O)c3ccc(F)cc3)CC2)c(OC)c1
  -10.5, 2.5, 12.5, -4.9, 7.1, 4735, 4.0
- COc1ccc(OC)c(S(=O)(=O)N2CCc3ccccc3C2)c1
  -20.1, 7.1, 0.2, 6.0, 10.2, 3820, 4.1
- C/C(=N/OC(=O)c1ccc(Cl)cc1Cl)c1oc(C)nc1C
  -15.5, x, x, x, x, 5883, -1.5
- O=C(CSc1ncn[nH]1)N(C1CCCCC1)C1CCCCC1
  -37.8, 7.1, -5.5, 2.0, -3.0, 20145*, 4.1
- COc1ccccc1N1CCN(C(=O)c2ccc3c(=O)n(Cc4ccc5c(c4)OCO5)c(=O)[nH]c3c2)CC1
  1.4, -0.5, -5.5, -6.4, 5.4, 4165, 2.6
- O=C(O)c1ccc(S(=O)(=O)Nc2ccc(F)c(Cl)c2)cc1
  -18.1, 2.0, x, x, -10.0, 2524, -6.0
- Cc1ccc(C)c(NC(=O)c2cc([N+](=O)[O-])cc([N+](=O)[O-])c2)c1
  -33.2, 0.9, 13.5, 24.4, 7.2, 3710, 6.3
- CN(C)CCCN(C(=O)c1ccc(S(=O)(=O)N2CCOCC2)cc1)c1nc2cc3c(cc2s1)OCO3
  8.7, 1.3, -4.5, -1.0, 3.2, 5315, 0.9
- CCOCCCNC(=O)CN1C(=O)c2ccccc2Sc2ncccc21
  -7.0, -3.3, -10.8, -0.6, -4.4, 3620, 0.1
- CCc1c(C)nc(N)nc1N1N=C1SCC(N)=O
  -23.3, 0.7, 3.9, 3.4, 3.8, u, -11.7
- CCOC(=O)c1sc2ncc([N+](=O)[O-])cc2c1N
  -35.6, -1.2, -12.4, 8.3, 10.4, 4281, 5.9
- O=C(Nc1ccc(C(=O)O)cc1)C(=Cc1ccc2c(c1)OCO2)NC(=O)c1ccc(Br)cc1
  x, -2.4, 13.8, 5.9, 8.5, x, x
- CC1(C)[C@H]2CC=C(CN3CCC(N4CCC(C(=O)N5CCCC5)CC4)CC3)[C@@H]1C2
  -31.7, 1.3, 3.4, 7.8, 0.3, 6453, -4.3
- Fc1cc(F)cc(NC(=S)Nc2ccccc2N2CCOCC2)c1
  -8.5, 2.5, -1.2, 9.0, -4.4, 2555, -2.9
- CC(OC(=O)c1cc2sccc2n1C)C(=O)NCCc1ccccc1 (stereo unspecified)
  0.8, 17.7, 0.4, -3.9, 5.1, 8978, 4.8
